# STK33 kinase inh = inhibitors of purified STK33 kinase, primary screen, biochemical, ADP-Glo luminescence, homogeneous, cell-free; MBP phosphorylation; AID 2661, 2010; inhibition, % at 10 µM; 0.073% of 320,000 active; Serine/threonine-protein kinase 33 (Homo sapiens), Q9BYT3;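 active = inhibition at or above 25%, using the most active replicate where run in duplicate; inactive = inhibition below 25%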
# Target sequence (Q9BYT3 whole entry, looked up): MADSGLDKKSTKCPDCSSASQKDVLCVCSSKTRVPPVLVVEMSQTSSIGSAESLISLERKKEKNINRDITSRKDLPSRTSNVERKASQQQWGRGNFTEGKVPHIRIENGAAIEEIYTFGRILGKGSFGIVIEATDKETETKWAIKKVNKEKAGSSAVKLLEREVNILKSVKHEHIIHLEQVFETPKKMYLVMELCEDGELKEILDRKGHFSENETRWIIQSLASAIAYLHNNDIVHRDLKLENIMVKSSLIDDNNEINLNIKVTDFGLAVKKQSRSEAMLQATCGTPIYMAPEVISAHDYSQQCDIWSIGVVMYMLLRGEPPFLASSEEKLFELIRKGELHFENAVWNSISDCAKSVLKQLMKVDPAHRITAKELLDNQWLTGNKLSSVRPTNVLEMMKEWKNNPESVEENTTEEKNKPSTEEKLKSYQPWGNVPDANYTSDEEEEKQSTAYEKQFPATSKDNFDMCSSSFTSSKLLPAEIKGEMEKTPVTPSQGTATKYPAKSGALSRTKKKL
# * marks the source's active call; other numbers are inactive results.
STK33 kinase inh,SMILES
-0.8,Cc1ccc(S(=O)(=O)N2CCOCC2)cc1C(=O)NCCN1C(=O)S/C(=C\c2ccccc2Cl)C1=O
-0.3,COc1ccc(C2/C(=C(\O)c3ccc4c(c3)OCCO4)C(=O)C(=O)N2CCCN(C)C)cc1 (stereo unspecified)
0.2,CCOC(=O)c1cc(C(C)(C)C)oc1CN
-0.3,Cc1ccc(S(=O)(=O)Nc2cc(C(=O)Nc3cc(C)cc(C)c3)ccc2Cl)cc1
-1.6,COc1ccc(C2=NN(CC(=O)NCC(OC)OC)C(=O)CC2)cc1
1.5,COc1ccccc1N(CC(O)Cn1nc(C)cc1C)S(=O)(=O)c1ccccc1 (stereo unspecified)
-1.3,O=C(NC1CCCC1)C(c1ccncc1)N(Cc1ccccc1)C(=O)c1ccc(-c2ccccc2)[nH]1 (stereo unspecified)
0.3,Cc1cnc(CNC(=O)CC2C(=O)NCCN2Cc2cccc(F)c2F)cn1 (stereo unspecified)
-0.4,CC1CCCC(NC(=O)COC(=O)[C@@H](NC(=O)c2ccco2)C(C)C)C1C (stereo partly specified)
-2.1,COC(=O)[C@@H]1C[C@H]1[C@@H](NS(=O)(=O)c1ccccc1)c1ccccc1
-2.2,Cc1ccc([N+](=O)[O-])c(OCCCNCC(C)O)c1 (stereo unspecified)
0.7,Cc1cc(N2CCN(c3ccccc3)CC2)n2ncnc2n1
1.9,CCN(CC)CCCNC(=O)c1cn(C)c(=O)c2c1c1ccccc1n2C
-0.8,CC(=O)OC1CSc2nc3ccccc3n2C1 (stereo unspecified)
-0.4,COc1cc(-c2nnc(COC(=O)c3nn(CC(C)C)c(=O)c4ccccc34)o2)cc(OC)c1OC
-2.8,Cc1ccc(C)c(OCCn2cc(C(=O)O)c3ccccc32)c1
0.6,O=C(Nc1ccc(F)cc1)c1ccc2c(=O)n3c(nc2c1)CCCCC3
2.8,C/C(=N/NC(=O)CNS(=O)(=O)c1ccccc1)c1ccc(Br)cc1
-1.0,CS/C(=C\[N+](=O)[O-])Nc1ccc(Cl)cc1
-3.6,COc1cnc(-c2ccccn2)nc1Oc1ccc(C(C)(C)C)cc1
-2.3,O=C(CN(Cc1ccccc1)C(=O)c1ccco1)NCc1ccc(F)cc1
-0.8,CCc1csc(CCNC(=O)C2CCC(=O)N(Cc3cccc(C(F)(F)F)c3)C2)n1 (stereo unspecified)
-2.3,CN(CC(=O)Nc1cccc(F)c1)C(=O)Cn1c(=O)cnc2ccccc21
-0.1,Cc1ccc(S(=O)(=O)N2CCN(C(=O)COC(=O)c3ccc(C(C)(C)C)cc3)CC2)c(C)c1
-0.4,COc1cccc(C(=O)SC2=NCCS2)c1
-2.6,Nc1[nH]c(=O)ncc1F
1.0,O=C(Nc1ccc(C(F)(F)F)cc1)c1ccc2nc[nH]c2c1
-0.2,COCCCn1c(=O)c2sccc2n2c(CCCC(=O)NCc3ccccc3OC)nnc12
2.9,CCOC(=O)c1cnc2ccc(OCC)cc2c1NCc1ccccc1
-1.2,CCc1cc(CNC(=O)CCc2nnc(CCCc3ccccc3)o2)on1
-0.4,CC(C)(C)Nc1nc(SCc2ccccc2)nc(N2CCOCC2)n1
-0.7,CC(=O)OCC(OC(C)=O)C(OC(C)=O)C(OC(C)=O)C(=O)Nc1cccc(C)c1 (stereo unspecified)
-0.9,O=C(Nc1ccccc1)OCCOc1ccccc1
-0.1,CSc1ccccc1C(=O)Nc1cc(C)ccc1C
-0.5,O=C(COC(=O)C1(c2ccc(Cl)cc2)CCCC1)NC1CCS(=O)(=O)C1 (stereo unspecified)
-0.8,Cc1ccc(C(=O)O)cc1NC(=S)NC(=O)c1ccc([N+](=O)[O-])cc1Cl
-0.1,COc1cccc(/C=C2\SC(=S)N(NS(=O)(=O)c3ccccc3)C2=O)c1OC
-1.0,Cc1cc(S(=O)(=O)N2CCC(NC(=O)C34CC5CC(CC(C5)C3)C4)CC2)ccc1-n1cnnn1
-1.0,CCn1c(CN2CCOCC2)nnc1SCC(=O)Nc1cccc(C)c1
-0.1,CCCN1Cc2cccc(C(=O)NCc3cccs3)c2C1=O
0.5,CCOc1ccccc1CN1CCN(C2CCC2)CC1CCO (stereo unspecified)
-0.8,CN(Cc1ccco1)C(=O)c1ccc(N2CCCC2=O)cc1
-1.9,CCCN1CCN(CCCNC(=O)C(CC)n2nc(C)n3c(cc4occc43)c2=O)CC1 (stereo unspecified)
0.0,CCOC(=O)C1CCCN(S(=O)(=O)c2ccc(C)cc2)C1 (stereo unspecified)
-0.1,COc1ccc(OC)c(N/C=C2/CCCCC2=O)c1
-2.9,O=C(N/C(=C\c1ccc(Br)cc1)c1nc2ccccc2[nH]1)c1ccco1
-1.9,CN(CC(=O)Nc1ccc(Cl)c(Cl)c1)C(=O)CN1C(=O)NC2(CCCC2)C1=O
-0.3,Cc1cc(C)n2nc(SCCCC(=O)c3ccccc3)nc2n1
-0.7,Cc1ccc(OCC(=O)N/N=C/c2ccncc2)cc1C
1.6,Cc1nc(-c2nc(C(=O)NNS(C)(=O)=O)cs2)cs1
-0.3,CC(C(=O)NC1C=CS(=O)(=O)C1)N1C(=O)/C(=C/c2ccc(Cl)cc2)SC1=S (stereo unspecified)
0.2,COc1ccc(Cl)cc1NC(=O)C(C)N1CCc2ccccc21 (stereo unspecified)
2.2,O=C(CSc1nnc(-c2ccncc2)n1Cc1ccco1)c1ccc(Cl)cc1
-0.1,Cc1nn(C)c(C)c1S(=O)(=O)N(CC(=O)NCCCN1CC(C)CC(C)C1)c1ccc(C(C)C)cc1 (stereo unspecified)
1.2,COCc1ccc2oc(C(=O)O)cc2c1
-0.5,CC1CC(C)CN(C(=O)c2ccc3ccccc3c2)C1 (stereo unspecified)
-2.5,COc1ccc(S(=O)(=O)Nc2cc(C(=O)NCCCN3CCOCC3)ccc2N2CCOCC2)cc1
-0.3,Cn1c2ccc(F)cc2c2ncn(Cc3ccco3)c(=O)c21
3.2,O=C(c1noc2c1CCCC2)N1CCCC(N2CCN(c3ccccc3F)CC2)C1 (stereo unspecified)
-0.1,CN1CCSc2ccc(C(=O)NCc3cccc(F)c3)cc21

# (more compounds)
STK33 kinase inh,SMILES
0.2,Cc1cccc(C(=O)Nc2cccc(OC(=O)c3cccc(C)c3)c2)c1
-2.0,CN(Cc1ccco1)C(=O)c1ccc(OC2CCN(Cc3ccccn3)CC2)cc1
-1.5,COc1cccc(Nc2nc(-c3ccccc3)nc3ccccc23)c1
-3.0,Cc1cc(C)n(S(=O)(=O)c2ccccc2)n1
-1.3,C[C@@H](NCCc1ccc(O)cc1)[C@@H](O)c1ccc(O)cc1
0.2,COC(=O)C(C(=O)OC)C(C[N+](=O)[O-])c1ccc(OC)cc1 (stereo unspecified)
-1.2,CCOc1ccc(/C(O)=C2/C(=O)C(=O)N(CCCN3CCOCC3)C2c2ccc(C)cc2)cc1C (stereo unspecified)
-3.0,Cn1nc(C(F)(F)F)cc1-c1ccc(/C=C(\C#N)C(=O)c2cccc(C(F)(F)F)c2)s1
-0.6,CCn1cc(Cl)c(C(=O)Nc2ccccc2C(N)=O)n1
-0.6,Cc1cc(=O)c(C(=O)O)nn1-c1ccccc1F
1.2,CCCC(c1nnnn1C(C)(C)C)N1CCN(Cc2ccccc2OC)CC1 (stereo unspecified)
-0.8,CCOC(=O)C1CCN(C(=O)COC(=O)c2cc(-c3cccs3)nn2-c2ccccc2)CC1
-1.1,Cc1ccc(NC(=O)c2ccc(CSc3nnc(-c4ccncc4)n3C)cc2)cc1
12,Clc1nc2ccccc2nc1-c1ccccc1
-0.7,O=C(Nn1c(C2CC2)nc2ccccc2c1=O)c1ccco1
0.0,CC(C)c1ccc(NC(=O)c2cc([N+](=O)[O-])ccc2N2CCOCC2)cc1
-1.1,CC(C)c1nnc(SCc2ccc(CSc3nnc(C(C)C)n3N)cc2)n1N
-1.3,Cc1cc(C)cc(NC(=S)N2CCN(c3ccccn3)CC2)c1
8.1,COc1ccc(NC(=O)CCS(=O)(=O)c2ccc3c(c2)CCCN3C(C)=O)cc1
-0.2,CC1(C)CC(NC(=S)NC2CC2)CC(C)(C)N1
-0.8,O=C(O)CCCn1c(O)c(C=C2N=c3ccccc3=N2)sc1=S
0.1,CC(C)Oc1ccc(S(=O)(=O)N2CCOCC2)cc1NC(=O)Cc1c(F)cccc1Cl
0.3,CCOc1ccc(S(=O)(=O)NCc2cccnc2)cc1C
-0.7,O=C(NCCc1ccccc1F)C1CC(=O)N(c2ccccc2)C1 (stereo unspecified)
-0.7,Clc1ccc(OCc2nn3c(C4CCCCC4)nnc3s2)cc1
-0.5,Nc1ccc(S(N)(=O)=O)cc1
0.4,CC(=O)Nc1ccccc1C(=O)C(=O)Nc1cccc(C(=O)N2CC(C)CC(C)C2)c1 (stereo unspecified)
-1.4,CCN1C(=O)C(CC(=O)Nc2ccc(F)cc2)N(CCCN2CCN(c3ccc(F)cc3)CC2)C1=S (stereo unspecified)
-0.2,O=C(Oc1c(-c2ccco2)oc2ccccc2c1=O)c1cccnc1
-0.3,Cc1cc(C)nc(SCc2ccc(C(=O)N/N=C/C3CCCCC3)cc2)n1
-1.4,Cc1c(CC(=O)N[C@@H](C)C(=O)O)c(=O)oc2cc3oc4c(c3cc12)CCCC4
-1.4,Cc1ccc(S(=O)(=O)Nc2c(O)ccc3ccccc23)cc1
2.9,COC(=O)[C@]12C(=O)C(C)=C(O)[C@@]1(C)C(C)=CC1[C@@]34CC[C@@H](OC(C)=O)C(C)(C)C3C(C[C@]12C)OC4=O (stereo partly specified)
-1.1,CSc1cc(CS(=O)(=O)c2ccccc2)nc(-c2ccccc2)n1
-1.0,Cc1cc(=O)n2[nH]c(Nc3cccc(Cl)c3)nc2n1
-1.5,COc1ccc(NC(=S)NC(=O)Cc2ccccc2)c(OC)c1
-2.2,O=C(c1n[nH]c2ccccc12)N1CCN(S(=O)(=O)c2ccc3ccccc3c2)CC1
-19,CN(CCCOc1ccccc1F)Cc1ccccc1
0.5,Cc1cccc2sc(NNC(=O)C3COc4ccccc4O3)nc12 (stereo unspecified)
0.0,COc1ccccc1N1CCN(C2CCCN(C(=O)c3oc(C)cc3C)C2)CC1 (stereo unspecified)
-1.6,Cc1cc(NC(=O)CCC(=O)N(CC(=O)NCC2CCCO2)c2cccc(C)c2C)no1 (stereo unspecified)
-0.3,O=S(=O)(c1ccc(Cl)c2ccccc12)N1CCCC1
-1.7,N#C/C(C(N)=O)=C1/SC(Cc2ccc(F)cc2)C(=O)N1c1ccccc1 (stereo unspecified)
0.6,N#CCSc1nnc(-c2cccnc2)n1-c1ccccc1
-0.1,Cc1ccc(S(=O)(=O)NN2C(=O)c3ccccc3NC2C)cc1 (stereo unspecified)
0.3,Cc1ccccc1NC(=O)COC(=O)c1cc(=O)c2ccccc2o1
-2.2,CC1CCN(C(=O)Cn2cc(SCC(=O)NCC3CCCO3)c3ccccc32)CC1 (stereo unspecified)
-0.4,CC(=O)n1cc(/C=N/NC(=O)c2ccc([N+](=O)[O-])cc2)c2ccccc21
-0.4,CCOC(=O)Nc1nnc(-c2ccc(OC)c(OC)c2)s1
-0.4,Cc1ccnc(NC(=S)NC(=O)/C=C/c2ccccc2)c1
-2.2,O=C(NC1CCCCCC1)C1CCC(CNS(=O)(=O)c2ccc(Br)s2)CC1 (stereo unspecified)
-1.5,COCCNC(=O)C(=O)NCCN1CCNCC1
-1.7,CN(C)CCNC(=O)COc1ccc(Cl)cc1Cl
-1.0,CCCn1c(=O)c(C(=O)Nc2ccccc2C)c(O)c2ccccc21
-1.0,O=C(CSc1nnc(CNC(=O)c2ccc(F)cc2)o1)Nc1ccc2c(c1)OCCO2
-0.5,CC(=O)c1ccc(NC(=O)CSc2ccc(-c3ccc(-n4cccn4)cc3)nn2)cc1
-1.6,O=C(COc1cccc2c1CCN(Cc1ccccc1)C2=O)N1CCCCC1
-1.0,O=C(c1ccc2c(c1)OCCO2)C1CCN(C(=O)Nc2ccc(F)cc2)CC1
0.4,CCOC(=O)c1c(N)nn(C(=O)C(C)C)c1-c1ccc(OC)cc1
-0.4,CN(Cc1ccccc1)C(=O)CSc1nnc(-c2ccco2)n1-c1ccccc1

# As a short view, 17 of the compounds above.
STK33 kinase inh,SMILES
-0.8,Cc1ccc(S(=O)(=O)N2CCOCC2)cc1C(=O)NCCN1C(=O)S/C(=C\c2ccccc2Cl)C1=O
-0.3,COc1ccc(C2/C(=C(\O)c3ccc4c(c3)OCCO4)C(=O)C(=O)N2CCCN(C)C)cc1 (stereo unspecified)
0.2,CCOC(=O)c1cc(C(C)(C)C)oc1CN
-0.3,Cc1ccc(S(=O)(=O)Nc2cc(C(=O)Nc3cc(C)cc(C)c3)ccc2Cl)cc1
-1.6,COc1ccc(C2=NN(CC(=O)NCC(OC)OC)C(=O)CC2)cc1
1.5,COc1ccccc1N(CC(O)Cn1nc(C)cc1C)S(=O)(=O)c1ccccc1 (stereo unspecified)
-1.3,O=C(NC1CCCC1)C(c1ccncc1)N(Cc1ccccc1)C(=O)c1ccc(-c2ccccc2)[nH]1 (stereo unspecified)
0.3,Cc1cnc(CNC(=O)CC2C(=O)NCCN2Cc2cccc(F)c2F)cn1 (stereo unspecified)
-0.4,CC1CCCC(NC(=O)COC(=O)[C@@H](NC(=O)c2ccco2)C(C)C)C1C (stereo partly specified)
-2.1,COC(=O)[C@@H]1C[C@H]1[C@@H](NS(=O)(=O)c1ccccc1)c1ccccc1
-2.2,Cc1ccc([N+](=O)[O-])c(OCCCNCC(C)O)c1 (stereo unspecified)
0.7,Cc1cc(N2CCN(c3ccccc3)CC2)n2ncnc2n1
1.9,CCN(CC)CCCNC(=O)c1cn(C)c(=O)c2c1c1ccccc1n2C
-0.8,CC(=O)OC1CSc2nc3ccccc3n2C1 (stereo unspecified)
-0.4,COc1cc(-c2nnc(COC(=O)c3nn(CC(C)C)c(=O)c4ccccc34)o2)cc(OC)c1OC
-2.8,Cc1ccc(C)c(OCCn2cc(C(=O)O)c3ccccc32)c1
0.6,O=C(Nc1ccc(F)cc1)c1ccc2c(=O)n3c(nc2c1)CCCCC3

# (further entries)
STK33 kinase inh,SMILES
-0.7,COc1c(Cl)cc(Cl)cc1/C=C/C(=O)c1ccc(NC(=O)c2cccs2)cc1
1.0,COc1ccc2nc(C)cc(SCC(=O)N3CCCCC3)c2c1
0.5,Cc1ccc(NC(=O)CN2C(=O)S/C(=C\c3cc(Cl)c(OCC(=O)O)c(Cl)c3)C2=O)cc1
0.8,COc1ccc(C2Nc3ccccc3C(=O)N2c2ccc(Cl)cc2)cc1Cn1cc([N+](=O)[O-])cn1 (stereo unspecified)
-0.1,COc1ccccc1NC(=S)NNC(=O)c1ccccc1Br

# Screening results deposited in PubChem BioAssay by Broad Institute.

# Only part of the results is shown; most or all hits stand in other tables.
